Compound activity deposited in PubChem BioAssay by Emory University Molecular Libraries Screening Center.
Measles inh: inhibitors of measles virus growth in infected cells; infected Vero cells, GFP fluorescence, 64 h; hits give low values; z-score (no concentration beside the values); actives 0.1% (n = 33,000);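 active = z-score under -3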;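 note: score is relative to mean and SD of the compound wells of a plate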
An asterisk follows results filed as active. The list is partial; the hit share may differ from the screen's.

SMILES	Measles inh
CCC(C)NC(=O)c1ccc2c(c1)nc(C)n2-c1cc(OC)c(OC)c(OC)c1 (stereo unspecified)	0.24
O=C(CCCn1cnc([N+](=O)[O-])n1)Nc1cc(C(F)(F)F)ccc1Cl	0.08
Cc1cccc(-c2nc(N(C)Cc3ccccc3)c3ccccc3n2)c1	-0.56
COc1cc(C2Nc3ccccc3NC3=C2C(=O)CC(c2ccccc2Cl)C3)cc(OC)c1OC (stereo unspecified)	0.39
O=C(NCc1ccco1)c1cc(=O)[nH]c2ccc(Br)cc12	-0.28
Fc1ccc(CN2CCC(N3CCN(c4ccccc4)CC3)CC2)cc1	-0.66
Cc1ccc(OCc2nc3ccccc3[nH]2)cc1	0.19
CCOC(=O)CSc1nc2c([nH]c3ccccc32)c(=O)n1-c1ccc(Cl)cc1	0.3
COc1ccc(-c2csc3nc(-c4ccccc4Br)oc(=O)c23)cc1	-0.66
CC1CC(C)CN(CCCNC(=O)CCc2nc(-c3ccccc3F)no2)C1 (stereo unspecified)	-0.99
O=C(O)CCCNc1ncnc2ccccc12	-0.43
CC1=C(C(=O)Nc2ccc(C)cc2C)C(c2ccc(O)cc2)NC(=S)N1 (stereo unspecified)	-1.1
CC1CCCCC1NC(=O)CCn1nc(-c2ccccc2)ccc1=O (stereo unspecified)	0.46
C=CCn1c(SCC(=O)OC)nc2sc3c(c2c1=O)CCCC3	-0.81
Cc1ccccc1OCC(=O)N1N=C2CCCCC2C1(O)C(F)(F)F (stereo unspecified)	-1.3
CCOC(=O)C1=C(C)C2(Br)C3C(=O)N(c4ccc(OCC)cc4)C(=O)C3C1(C)C1C(=O)N(c3ccc(OCC)cc3)C(=O)C12 (stereo unspecified)	-0.31
CC1CCCC(NC(=O)C2c3ccccc3C(=O)N2CCc2ccc(Cl)cc2)C1C (stereo unspecified)	1.1
CCOC(=O)C1(C(F)(F)F)N=C(N2CCOCC2)OC(N2CCOCC2)=N1	-0.33
COc1ccc(C2=NN(C(=O)CSc3nc4ccccc4s3)C(c3cccc(OC)c3OC)C2)cc1 (stereo unspecified)	-0.56
O=C1CC(c2cccs2)c2ccc3ccccc3c2N1 (stereo unspecified)	1.1
Cn1ncc([N+](=O)[O-])c1C(=O)Nc1ccccc1C(=O)O	-0.74
CC(=O)Nc1cccc(NC(=O)c2cccc(Cl)c2)c1	0.1
NC(=O)NC(=O)C[n+]1cccc(C(N)=O)c1	0.14
COc1ccccc1N1CCN(C(=O)CCC(=O)Nc2ccc3nc(N4CCC(C)CC4)cc(C)c3c2)CC1	0.03
Cc1ccc(-n2nc3c(c2NC(=O)C2CCCC2)CS(=O)(=O)C3)c(C)c1	0.27

New compounds follow
SMILES	Measles inh
O=C(Nc1ccccc1-c1nc2ccccc2[nH]1)c1ccccc1F	-1.6
Cn1c2ccccc2c2c(C(=O)N3CCN(c4ccc(F)cc4)CC3)cn(C3CCCC3)c(=O)c21	1.3
CCN1CCN(CCC(=O)Nc2ccc(F)cc2)CC1	0.82
CCCN1CNC(=S)N(c2ccc(CC)cc2)C1	0.84
O=C(Nc1ccc2oc(-c3ccncc3)nc2c1)c1ccc([N+](=O)[O-])cc1Cl	-1.1
N#Cc1cc(Sc2nc3ccccc3s2)c(N2CCOCC2)cc1C#N	-1.1
COc1cc(C=Nc2ccc(C)cc2)cc(Br)c1O	-1.4
CCc1ccc(C2C(C(=O)Nc3ccc(F)cc3)=C(C)NC3=C2C(=O)CC(c2ccccc2)C3)cc1 (stereo unspecified)	-0.57
O=C(Nc1ccccc1C(=O)O)c1cccc(Oc2ccc([N+](=O)[O-])cc2)c1	-0.71
S=c1[nH]c(-c2ccccc2)cn1-c1ccccc1	0.16
CCN(CC)CCNC(=O)c1ccc2c(c1)N(Cc1ccc(C)cc1)C(=O)c1ccccc1S2	-1.9
Cc1nc2scc(-c3cccs3)c2c(=O)o1	-0.63
O=C(CC(C(=O)O)C1CCCO1)NCCc1ccc2c(c1)OCO2 (stereo unspecified)	1.4
Cc1ccccc1NC(=O)C1c2ccccc2Oc2ccccc21	-1.1
CC1CCC(C(=O)NC(C(=O)Nc2ccc(C(C)C)cc2)C(C)C)CC1 (stereo unspecified)	-0.83
CNC(=O)c1c(O)c2c([nH]c1=O)CCCC2	1.6
CCCOC(=O)C1=C(C)NC2=C(C(=O)C(C(=O)OC)C(C)C2)C1c1ccc(Cl)c([N+](=O)[O-])c1 (stereo unspecified)	-0.49
COc1ccc(C(=O)C[n+]2cccc(C(N)=O)c2)cc1	-0.42
CCc1ccc(C2CC(c3ccccc3F)n3nnnc3N2)cc1 (stereo unspecified)	-0.67
COC(=O)c1ccc2c(=O)n(Cc3ccc(C(=O)NC(C)C)cc3)c(=S)[nH]c2c1	-0.53
COc1ccc(-n2nc(C(=O)NCC(=O)Nc3ccccc3OC)c3ccccc3c2=O)cc1	-0.34
CSc1nc2ccsc2c(=O)n1Cc1ccccc1F	0.29
Cc1cccn2c(=O)c3cc(C(N)=S)c(=N)n(CCc4ccccc4)c3nc12	-1.2
CN(Cc1ccccc1)C(=O)c1ccc(Cn2c(=O)[nH]c3ccccc3c2=O)cc1	-0.19
CCOc1ccccc1NC(=O)CSc1nccn1-c1ccc(F)cc1	1.5

Structures above containing two or more sulfur atoms, in the order listed:
SMILES	Measles inh
C=CCn1c(SCC(=O)OC)nc2sc3c(c2c1=O)CCCC3	-0.81
COc1ccc(C2=NN(C(=O)CSc3nc4ccccc4s3)C(c3cccc(OC)c3OC)C2)cc1 (stereo unspecified)	-0.56
N#Cc1cc(Sc2nc3ccccc3s2)c(N2CCOCC2)cc1C#N	-1.1
Cc1nc2scc(-c3cccs3)c2c(=O)o1	-0.63
CSc1nc2ccsc2c(=O)n1Cc1ccccc1F	0.29

Next records:
SMILES	Measles inh
Cc1cccc(NC(=O)c2cc(S(=O)(=O)NCCc3ccccc3)ccc2F)c1	-1
COC(=O)C1=C(C)Nc2nnnn2C1c1ccc(OCc2ccccc2)c(OC)c1 (stereo unspecified)	0.97
CCOc1ccc(-n2c(=O)c3c(C)c(C(=O)N(C)C)sc3n(CC(=O)Nc3ccccc3C)c2=O)cc1	1.6
Cn1c(SCC(=O)c2ccc(Cl)cc2)nc2c(c1=O)C1(CCCC1)Cc1ccccc1-2	0.36
COc1ccc(-c2cc(C(=O)Nc3c(C)n(C)n(-c4ccccc4)c3=O)no2)cc1OC	-1.3
Cc1cc(NS(=O)(=O)c2ccc(NC(=O)c3ccc(C(=O)C(=O)c4ccccc4)cc3)cc2)nc(C)n1	-0.89
CCc1c(-c2ccccc2)nc2ccccc2c1C(=O)NCc1ccc(OC)cc1	-0.8
COc1ccc(-c2nc(SCC(=O)NCc3ccccc3)c3c(=O)n(C)c(=O)n(C)c3n2)cc1	0.28
O=c1oc(-c2sc3ccccc3c2Cl)nc2ccccc12	-0.78
O=S(=O)(c1ccc(-c2csc(Nc3ccc(Br)cc3)n2)cc1)N1CCOCC1	0.87
O=C(Nc1ccc(-c2nc3ccc([N+](=O)[O-])cc3[nH]2)cc1)C1CCCCC1	-1.8
O=C(OCCN=C1NS(=O)(=O)c2ccccc21)c1cccnc1	-0.3
CCC(=O)N1c2ccccc2-c2nnc(SC)nc2OC1c1ccc(I)o1 (stereo unspecified)	0.63
Cc1cc(C(=O)Oc2ccccc2NC2=NS(=O)(=O)c3ccccc32)c2ccccc2n1	-0.43
CC(C)CCNC(=O)CSc1nc(NC2CCCCC2)c2ccccc2n1	0.81
CCOc1ccc2nc(C34CC5CC(CC(C5)C3)C4)ccc2c1	1.7
Cc1ccc(S(=O)(=O)N2C(=O)CSC2=Nc2ccccc2)cc1	-0.75
CCCN(CCC)C(=O)c1cc(-c2ccc(C)cc2)nc2ccccc12	-1.3
CC1(C)CC2CC(C)(CN2C(=O)c2cc3n(n2)C(C(F)(F)F)CC(c2ccco2)N3)C1 (stereo unspecified)	-0.82
COC(=O)c1ccc(C=Nc2ccc(-c3nc4ccccc4o3)cc2)cc1	0.38
Cn1c(=O)c2c(nc(NCc3ccc4c(c3)OCO4)n2Cc2ccccc2Cl)n(C)c1=O	0.61
O=C(C1CC1)N1CCc2cc(Br)cc(S(=O)(=O)NCCCN3CCCC3)c21	-0.32
CC1CCN(C(=O)CSc2nc3ccccc3c(=O)n2CCC(=O)N2CCN(c3ccccc3)CC2)CC1	-1.9
CCOC(=O)CN1C(=O)C(O)(CC(=O)c2cc(C)ccc2C)c2ccccc21 (stereo unspecified)	0.84
COC(=O)CSc1nc2sc3c(c2c(=O)n1-c1ccc(C)cc1)CC(C)(C)OC3	0.27

(more compounds)
SMILES	Measles inh
CC(NC(=O)CCNS(=O)(=O)c1cccc2nonc12)c1ccccc1 (stereo unspecified)	-0.52
Cc1ccc(OC(=O)c2cccc(N3C(=O)C4CCC(C)CC4C3=O)c2)cc1C (stereo unspecified)	0.41
CCOC(=O)Cc1nc(-c2ccc(Cl)cc2)cs1	0.07
Cc1cc(NC(=O)CSc2nc3cc4c(cc3c(=O)n2Cc2ccco2)OCO4)no1	-0.75
COc1cc(Cl)c(C)cc1NC(=O)C1c2ccccc2C(=O)N2CCc3cc(OC)c(OC)cc3C12 (stereo unspecified)	-1.1
COc1ccc(Cl)cc1NC(=O)CN(c1cccc(C)c1C)S(C)(=O)=O	2.3
Cc1ccccc1CSC1=NCCN1C(=O)C12CC3CC(CC(C3)C1)C2	-0.58
CCC(C)NC(=O)c1nn2c(c1Br)NC(c1cccs1)CC2C(F)(F)F (stereo unspecified)	-0.05
COc1ccc2c(C)cc(SCC(=O)Nc3ccccc3)nc2c1	1.8
COc1ccc(N=Cc2ccc(Br)c([N+](=O)[O-])c2)cc1OC	0.28
Cc1cc2nc(-c3cccc(NC(=O)c4cccc(F)c4)c3)oc2cc1C	0.96
O=C(CSc1nnc(CNC(=O)c2ccco2)o1)Nc1ccccc1F	3.1
CCc1ccc(-n2c(CCC(=O)O)ccc2-c2ccc(F)cc2)cc1	1.7
CCOc1ccc(C2C(C(=O)OC3CCCC3)=C(C)NC3=C2C(=O)CC(c2ccc(OC)cc2)C3)cc1OC (stereo unspecified)	-1
Cc1ccc(NC(=O)C2CCCNC2=O)nc1 (stereo unspecified)	-0.64
CCCOC(=O)c1cccc(NC(=O)COc2cccc(Cl)c2)c1	-1.6
Cc1noc(C)c1C(=O)Nc1nnc(CC2CCCC2)s1	1.2
COc1cc(OC)cc(C(=O)Nc2c3c(nn2-c2cccc(C)c2)CSC3)c1	0.08
O=C(COC(=O)c1ccccc1Nc1ccccc1)c1cccc([N+](=O)[O-])c1	-0.45
CCC(=O)NCc1nc2ccccc2n1Cc1ccccc1F	5.3
COc1cc2ccccc2cc1C(=O)Nc1nc(-c2ccc(I)cc2)cs1	0.37
O=C(N(CCN(Cc1ccccc1)C(=O)C(F)(F)F)Cc1ccccc1)C(F)(F)F	-0.29
O=C(NCc1ccc(F)cc1)c1cc2n(n1)C(C(F)(F)F)CC(c1ccc(Cl)cc1)N2 (stereo unspecified)	-2.2
Cc1ccc(NS(=O)(=O)c2cc(Br)cc3c2N(C(=O)C2CC2)CC3)cc1F	1.4
CCOc1ccc(C2CC(c3ccccc3Cl)n3ncnc3N2)cc1Cl (stereo unspecified)	-0.25

(further entries)
SMILES	Measles inh
CCCN1CCN(CCCNC(=O)c2cn(C)c(=O)c3c2c2ccccc2n3C)CC1	-0.86
O=C(CSc1nc2ccccc2[nH]1)C1CC1	0.25
COc1cc(-n2c(=O)c3ccccc3n(CC(=O)Nc3ccc(C)cc3)c2=O)cc(OC)c1OC	-0.37
c1coc(-c2nc3c4c5c(sc4ncn3n2)CCCCC5)c1	0.1
COc1cccc2c1OC1(CCC(C)CC1)N1N=C(c3ccc(C)o3)CC21 (stereo unspecified)	0.26
Cn1c2c(c(=O)n(C)c1=O)C(c1ccc(Cl)cc1)C1=C(CCCC1=O)N2 (stereo unspecified)	1.5
CC1CC2(CCCCCC2)Nc2ccc(F)cc21 (stereo unspecified)	0.44
Cc1ccc(CNC(=O)c2cc(=O)[nH]c3ccc(S(=O)(=O)N4CCCCC4C)cc23)cc1 (stereo unspecified)	2.2
O=c1[nH]c(=O)n(-c2ccc(Cl)cc2)c2c1C(C(F)(F)F)(C(F)(F)F)N=C(Cc1ccccc1)N2	0.12
O=C(c1cnn2c1NC(c1ccccc1)CC2C(F)(F)F)N1CCCCC1 (stereo unspecified)	-0.69
CCc1ccc(NC(=O)CSc2nc3ccccc3o2)cc1	-0.64
O=C1CCCC(=O)N1c1ccc(NCc2ccc(F)cc2)c([N+](=O)[O-])c1	1.6
COC(=O)c1ccccc1NC(=O)Cc1c(C(=O)O)[nH]c2ccccc12	1.1
CN(C)c1ccc(NC(=O)CSc2nc3ccccc3c(=O)n2CCc2ccccc2)cc1	-0.56
COc1cc(C(=O)Nc2ncc(Cc3ccccc3Cl)s2)cc(OC)c1OC	-1.7
Cc1noc(C)c1S(=O)(=O)N1CCC(C(=O)Nc2ccc3c(c2)OCCO3)CC1	0.1
Nc1ccccc1OCCOc1ccccc1N	1.6
Cc1nc2c(C(=O)NC(C)C)cnn2c(C)c1Cc1ccc(Cl)cc1	0.78
O=C(CCCNS(=O)(=O)c1ccccc1)NCc1ccco1	-0.64
CCOC(=O)c1c(NC(=O)c2cc3ccccc3o2)sc2c1CCC(C)C2 (stereo unspecified)	1.2
COc1ccc2nc3sc(C(=O)Nc4nc5ccccc5s4)cc3cc2c1	-0.63
Cc1cccn2c(Nc3ccccc3)c(-c3ccco3)nc12	0.29
Cc1cccc(CS(=O)(=O)Cc2ccc(C(=O)NC3CC3)o2)c1	0.73

A portion of the results above:
SMILES	Measles inh
CCC(C)NC(=O)c1ccc2c(c1)nc(C)n2-c1cc(OC)c(OC)c(OC)c1 (stereo unspecified)	0.24
O=C(CCCn1cnc([N+](=O)[O-])n1)Nc1cc(C(F)(F)F)ccc1Cl	0.08
Cc1cccc(-c2nc(N(C)Cc3ccccc3)c3ccccc3n2)c1	-0.56
COc1cc(C2Nc3ccccc3NC3=C2C(=O)CC(c2ccccc2Cl)C3)cc(OC)c1OC (stereo unspecified)	0.39
O=C(NCc1ccco1)c1cc(=O)[nH]c2ccc(Br)cc12	-0.28
Fc1ccc(CN2CCC(N3CCN(c4ccccc4)CC3)CC2)cc1	-0.66
